Source: PubChem BioAssay (several laboratories)
CSC inhib – blocks cancer stem cells. inhibition, % at 7.5 µM. cancer stem cell-like cells viability, luminescence. actives 1.1% (n = 300,000);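 active = mean at 75% or more and at least half the replicates too; inconclusive = mean and replicates disagree; tested in HMLE shEcad cells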;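 also: 0% = median of negative and 100% = median of positive control wells; the first replicate is given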
Rce1 inh – yeast Ras-converting enzyme inhibition; yeast membranes, quenched prenylated peptide cleavage fluorescence; AID 2563; Q03530; calls only; actives 0.27% (n = 290,000);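 active = fall in fluorescence gain of 50% or more versus controls, with final raw signal at or below 3038400; inconclusive = same 50% fall but final raw signal above 3038400; inactive = fall in fluorescence gain under 50%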;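 also: plate controls were neutral control wells for no effect and wells lacking membranes for full effect; tested at 10 µM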
HIV Env fusion – HIV envelope-mediated fusion inhibition | HeLa-JRFL Env/CEM21 cell fusion, luciferase | inhibition, % at 12.3 µM | actives 1.1% (n = 360,000) | AID 651610;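 active = mean replicate inhibition score of at least 50 and every replicate individually at or above 50; inconclusive = only one of the two criteria met; inactive = mean below 50 and not all replicates reaching 50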;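 also: 0% = plate neutral controls and 100% = maraviroc near 300 nM; one replicate is shown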
PABP FP inh – PABP-poly(A) binding inhibition. PABP-poly(A) RNA binding, fluorescence polarization. inhibition, % at 35 µM. P11940. actives 1% (n = 290,000);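 active = 50% or more with normal probe brightness, or confirmed in later tests; inconclusive = above 50% with abnormal brightness, or retests that disagree; inactive = below 50% or failed in later tests; about a fifth of its hits are not listed in these tables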;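 also: calls also rest on retests at 20 µM and on dose response follow-up; controls were probe without protein and protein plus probe with vehicle; some compounds called inactive have numbers as strong as hits; many hits fall short of the cut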
Target sequence (P11940 whole entry, looked up): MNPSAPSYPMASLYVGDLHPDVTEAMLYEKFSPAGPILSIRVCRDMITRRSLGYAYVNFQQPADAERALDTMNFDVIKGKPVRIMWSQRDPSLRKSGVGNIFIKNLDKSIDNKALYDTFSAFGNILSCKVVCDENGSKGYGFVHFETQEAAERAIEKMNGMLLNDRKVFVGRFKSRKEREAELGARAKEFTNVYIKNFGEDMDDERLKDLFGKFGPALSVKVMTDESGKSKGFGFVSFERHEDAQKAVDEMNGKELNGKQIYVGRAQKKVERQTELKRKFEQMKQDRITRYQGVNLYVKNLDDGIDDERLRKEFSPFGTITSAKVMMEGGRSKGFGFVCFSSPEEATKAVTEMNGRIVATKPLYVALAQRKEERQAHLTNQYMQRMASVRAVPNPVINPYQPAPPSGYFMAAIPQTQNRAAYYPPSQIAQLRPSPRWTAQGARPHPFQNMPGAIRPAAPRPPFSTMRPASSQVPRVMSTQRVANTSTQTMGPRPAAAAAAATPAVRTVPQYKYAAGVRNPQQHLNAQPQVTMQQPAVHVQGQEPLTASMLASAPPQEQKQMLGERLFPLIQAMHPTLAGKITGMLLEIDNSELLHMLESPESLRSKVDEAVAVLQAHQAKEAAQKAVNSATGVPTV
eIF4H FP inh – inhibitors of RNA binding by human eIF4H | actives 0.94% (n = 290,000) | eIF4H fluorescence polarization binding assay | inhibition, % at 35 µM;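 active = 50% or more with normal probe brightness, or confirmed in later tests; inconclusive = above 50% with abnormal brightness, or retests that disagree; inactive = below 50% or failed in later tests; about a fifth of its hits are not listed in these tables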;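 also: calls also rest on retests at 20 µM and on dose response follow-up; 0% = protein and probe with vehicle and 100% = probe without protein; strong numbers were not always called active; many hits fall short of the cut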
MT1-MMP act inh – MT1-MMP (human) activation inhibition; P50281; HT1080 RFP-PRO-GFP cells, GFP/RFP ratio fluorescence, overnight; percent of plate control window, DMSO zero; GFP/RFP ratio change, % at 20 µM; actives 0.061% (n = 360,000); AID 651647;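 active = GFP/RFP ratio change of at least 30% with cell ATP level not reduced by more than half and red fluorescence within 50% of control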; also: strong numbers were not always called active
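Material: RFP-PRO-GFP reporter HT1080 cells. Dosing: single-point 20 µM compound, 1% DMSO. Controls: DMSO and RFP-L50D-GFP cell wells. Timing: cells overnight before dosing, compound overnight, 37 °C, 5% CO2. Measure: GFP/RFP fluorescence ratio.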
UUG fidelity – yeast start codon fidelity modulation. AID 602363. actives 0.13% (n = 350,000). S. cerevisiae UUG-firefly luciferase reporter, luminescence/redox ratio. activity score, % at 18.7 µM;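 active = replicate mean at a twofold rise or more, about +100% in these data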;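 also: firefly luciferase made from a UUG start codon reports start codon fidelity; reporter light over untreated wells divided by growth signal over untreated wells; some hits fall short of that in this replicate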
eIF4H FP inh retest – recorded beside eIF4H FP inh, whose call it bears; inhibition, %; compound at 20 µM; confirmation average;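 mean of two retest wells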
PABP FP inh retest – second read-out of PABP FP inh, no call of its own (marks repeat the call); inhibition, %; compound at 20 µM; confirmation repeats;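 mean of two retest wells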
MT1-MMP act inh RFP – also measured in MT1-MMP act inh; calls as there; RFP signal change, %; measured here: RFP expression control read;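 0 = vehicle wells; hits needed this value within 50% of zero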
* hit, by the source's call; i = inactive; ? = inconclusive; nt = no result given; + = active, no number.

SMILES | CSC inhib | Rce1 inh | HIV Env fusion | PABP FP inh | eIF4H FP inh | MT1-MMP act inh | MT1-MMP act inh RFP | UUG fidelity | others
Cn1c(=O)cc(SCC(=O)N2CCN(c3ccccn3)CC2)c2ccccc21 | 1 | i | -3 | 1 | 0 | 9 | 11 | -15
Cc1cc(C)c(C)c(S(=O)(=O)Nc2ccc(OCC(=O)O)cc2)c1C | 11 | i | -22 | 5 | 2 | -1 | 5 | 1
Fc1cccc(Cl)c1Cn1nnc2c(-n3ccnc3)ncnc21 | -1 | i | nt | -9 | -9 | 10 | 10 | 4
O=C1CN(C(=O)COC(=O)c2ccccc2NCc2ccco2)c2ccccc2N1 | 8 | i | nt | 12 | 4 | 4 | -5 | 1
O=C(O)c1cc2c(ccc3ccccc32)oc1=O | 3 | + | -15 | 2 | -2 | 0 | 1 | -2
O=C(CCCCCn1nnc2ccccc2c1=O)Nc1ccccc1Cl | -4 | i | 4 | -2 | -11 | -4 | 3 | -9
Cc1ccc(-n2[nH]c(C)c(/C=N/Nc3ccc([N+](=O)[O-])cc3[N+](=O)[O-])c2=O)cc1C | 71 | i | 39 | 3 | -1 | 17 | -23 | nt
N#CCCn1c(=O)n(CCC#N)c2ccccc21 | 11 | i | 18 | -3 | -4 | 4 | 6 | nt
CCOC(=O)C1=C(C)N(C[C@@H]2CC[C@@H](Cc3ccc(-c4ccccc4)cc3)O2)C(=O)NC1C1CC1 (stereo partly drawn) | nt | nt | ? | nt | nt | -2 | -19 | -21
CCCCNC(=O)CC(=O)Nc1ccccc1C(=O)O | -2 | i | nt | -2 | 7 | -5 | 2 | 5
O=C(NCCc1ccc(Cl)cc1)c1cc(S(=O)(=O)N2CCCC2)ccc1F | nt | nt | 7 | nt | nt | -1 | -7 | -1
O=c1cnc2ccccc2n1Cc1ccccc1C(F)(F)F | -14 | nt | 6 | -6 | -3 | 0 | 0 | -26
O=C(N/N=C\c1ccc([N+](=O)[O-])o1)c1cncc(Br)c1 | 3 | i | -15 | 54* | 71* | -5 | -15 | -5
CC1C(C#N)=C(N)OC2=C1C(=O)CCC2 (stereo not drawn) | 21 | i | nt | 6 | 8 | 5 | 1 | 10
CC(=O)N1CCCc2cc(S(=O)(=O)NCCC3=CCCCC3)ccc21 | -7 | i | 33 | -9 | -2 | -2 | -7 | 2

Reprinted from the part before: two compounds, then new ones.
SMILES | CSC inhib | Rce1 inh | HIV Env fusion | PABP FP inh | eIF4H FP inh | MT1-MMP act inh | MT1-MMP act inh RFP | UUG fidelity | others
CC1C(C#N)=C(N)OC2=C1C(=O)CCC2 (stereo not drawn) | 21 | i | nt | 6 | 8 | 5 | 1 | 10
CC(=O)N1CCCc2cc(S(=O)(=O)NCCC3=CCCCC3)ccc21 | -7 | i | 33 | -9 | -2 | -2 | -7 | 2
CC(C)n1cnc2c(Nc3cccc(Cl)c3)nc(N(CCO)CCCO)nc21 | 7 | i | nt | 4 | -18 | -10 | -10 | -6
O=C(COC(=O)COc1ccc(Br)cc1)NC1CCCCCC1 | 6 | nt | 4 | nt | nt | 1 | 3 | -8
O=C1C2C3C=CC(CNS(=O)(=O)c4ccccc4)(O3)C2C(=O)N1c1ccc(Cl)cc1 (stereo not drawn) | -3 | i | 3 | 31 | 7 | 4 | 9 | nt
COCCn1c(SCC#N)nnc1-c1ccc(OC)cc1 | -8 | i | nt | ? | 3 | -1 | 0 | -14
CCCC(=O)N1CC2(CCC)CN(C(=O)CCC)CC(CCC)(C1)C2=O | -10 | i | nt | -2 | 0 | 4 | 3 | nt
Cc1ccccc1C(=O)NC(=S)Nc1ccc(S(=O)(=O)N2CCOCC2)cc1 | -9 | i | -4 | 5 | -5 | 24 | 3 | nt
COc1ccc(CN2CCN(C(=O)c3c(-c4ccccc4)noc3C)CC2)cc1F | nt | nt | 16 | nt | nt | -2 | -9 | -17
O=C(COc1cccnc1[N+](=O)[O-])c1c[nH]c2ccccc12 | -7 | i | 22 | -8 | -1 | -3 | 1 | 9
Cc1ccc2nc(-c3ccc(NS(=O)(=O)c4ccc(F)cc4)cc3)sc2c1 | nt | ? | -323 | -2 | 13 | 7 | 5 | -25
CCOC(=O)c1ccc(NC(=S)NC(=O)c2nn(CC)cc2Br)cc1 | -1 | i | 18 | -3 | -4 | -4 | -2 | -2
COc1ccc(Oc2nc(-c3ccccc3)ncc2S(=O)(=O)c2ccccc2)cc1 | -11 | i | nt | 4 | 0 | -6 | -6 | nt
NS(=O)(=O)OCC(Cc1ccccc1)N1C(=O)c2ccccc2C1=O (stereo not drawn) | 24 | i | -10 | 4 | 3 | -6 | 0 | -11
CCOc1cc(C(=O)Nc2nnc(CC)s2)ccc1OCC(=O)N1CCOCC1 | -15 | i | nt | -4 | 5 | 1 | 2 | -16
O=c1cc(CSc2nnc(NC3CCCCC3)s2)nc2sccn12 | -1 | i | 7 | 6 | -2 | 2 | 0 | 7
CCc1ccc(NC(=O)CSc2nnc(CNC(=O)c3c(F)cccc3Cl)o2)cc1 | -22 | i | -29 | -7 | 1 | 1 | 6 | -10
FC(F)(F)c1ccnc(NCc2ccc(Cl)cc2)n1 | -9 | i | 6 | 3 | -3 | 0 | -3 | nt
O=C(O)c1cc(-c2ccc(/C=C3\NC(=O)N(c4ccc(Cl)cc4)C3=O)o2)ccc1Cl | -2 | i | -5 | 92* | 85* | -1 | 6 | nt
Cc1oc2cc(Br)c(O)c(Br)c2c1-c1ccccc1 | 3 | i | nt | -8 | -5 | -1 | -5 | -4
COc1ccccc1-c1cc(C(F)(F)F)nc(S(=O)(=O)CCCC(=O)O)n1 | 19 | i | 24 | 6 | 9 | -22 | -4 | -6
O=C(C1CCN(S(=O)(=O)c2ccccc2[N+](=O)[O-])CC1)N1CCOCC1 | -2 | i | -6 | 8 | -6 | -1 | 4 | -15
CCN(CC)CCC#CC1(O)c2ccccc2-c2ccccc21 | -10 | i | -1 | 1 | 4 | 0 | 3 | -61
O=C(Cn1nc(C(=O)O)c2ccccc2c1=O)Nc1cccc(S(=O)(=O)N2CCCC2)c1 | nt | nt | 1 | nt | nt | 9 | 1 | -17
O=C(Oc1oc(-c2ccco2)nc1C=Nc1ccccc1)c1ccoc1 | -3 | i | nt | 2 | 4 | -3 | -4 | -13
O/N=C(/c1ccc(F)cc1)C1CC1c1c(F)cccc1Cl (stereo not drawn) | 56 | i | -1 | -2 | -5 | -1 | -2 | -16
CC(/C=N/n1c(-c2ccncc2)n[nH]c1=S)=C\c1ccco1 | -21 | i | 31 | 46* | 84* | -13 | -4 | -15 | eIF4H FP inh retest=102*;PABP FP inh retest=82*
CC(=O)Nc1ccc(C(=O)Nc2ccc(S(=O)(=O)N3CCCCC3)cc2)cc1 | -4 | i | -24 | 18 | 8 | 2 | -4 | -5
CC(C(=O)NCc1cccnc1)c1ccc([N+](=O)[O-])cc1 (stereo not drawn) | 5 | i | -34 | 2 | -6 | -5 | -3 | -14
Cc1cc(NC(=O)CSc2nc3ccccc3n2CC(=O)N2CC(C)CC(C)C2)no1 (stereo not drawn) | nt | i | 34 | -4 | 8 | -5 | -1 | 0
COc1ccc(OCC(=O)Nc2nc3ccccc3[nH]2)cc1 | -7 | i | nt | -3 | -11 | 2 | 3 | -27
N#Cc1c(SCC(=O)Nc2nncs2)sc2c(O)cc(=O)[nH]c12 | 8 | nt | 27 | 80* | 101* | -4 | 3 | -11
O=C(COc1ccccc1)N(Cc1cccs1)C1CCS(=O)(=O)C1 (stereo not drawn) | 1 | i | -12 | -3 | -10 | -2 | 2 | nt
Cc1ccc(C2Nc3ccc4ccccc4c3C3=C2C(=O)CC(C)(C)C3)o1 (stereo not drawn) | 2 | i | nt | 4 | 12 | -26 | -25 | nt
COC(=O)Cc1c(OC)ccn(CCc2c[nH]c3ccccc23)c1=O | -1 | i | -14 | 2 | 5 | -1 | 1 | -11
O=C(NCCc1nnc2ccccn12)c1cccs1 | -2 | i | -25 | nt | nt | 1 | 0 | -13
COc1ccccc1C(=O)NCC(=O)OCC(=O)c1ccc2c(c1)-c1ccccc1C2 | -4 | i | -80 | -4 | -12 | nt | nt | 551*
CN1CCO/C1=C(\C(Cl)=C(Cl)Cl)[N+](=O)[O-] | -10 | i | -8 | -7 | -10 | 2 | 2 | nt
O=C(NCCSc1ccccc1)c1ccc(CN2CCOCC2)cc1 | 22 | i | -35 | 15 | -7 | 1 | -1 | -15
C/C(=C\C=C(C#N)C#N)c1cc(C#N)c(N)o1 | nt | i | 2 | ? | ? | -8 | 69 | nt
NS(=O)(=O)c1ccc(NC(=O)c2c(Cl)cccc2Cl)cc1 | -10 | i | 7 | -5 | -4 | 0 | 0 | -8
Cc1ccc(C)c(NC(=O)CSc2nc3[nH]ncc3c(=O)[nH]2)c1 | 5 | i | -5 | 1 | 7 | 5 | 3 | nt
Cc1sc2nc(C3CC3)nc(SCC(=O)N3CCCc4ccccc43)c2c1C | 42 | i | 2 | 0 | 1 | nt | nt | nt
O=C(/C=C/c1cccs1)N1CCCC1 | 0 | i | -13 | -3 | -1 | 1 | 2 | -18
O=C(N/C(=C/c1cccnc1)C(=O)N1CCOCC1)c1ccccc1 | -28 | i | 8 | -5 | -7 | 3 | 4 | nt
CCN(CC)S(=O)(=O)c1ccc(/C=C/C(=O)OCC#N)cc1 | -4 | i | 5 | 3 | -9 | 2 | 3 | -27
CC1CCCC(C)N1C(=O)CCN1C(=O)C2C3C=CC(C3)C2C1=O (stereo not drawn) | -2 | i | 12 | -1 | -10 | 2 | 4 | 24
COc1ccc(C2NCCc3c2[nH]c2ccccc32)cc1COc1ccc(F)cc1 (stereo not drawn) | ? | i | -142 | 4 | -4 | -13 | -11 | nt
CCn1cc(CCC(=O)NCc2ccccc2OC)c2ccccc21 | -2 | i | -10 | 0 | 2 | -5 | -1 | -4
CCCCOc1ccc(Cl)cc1CSc1nnc(C)n1N | 5 | i | -6 | 4 | -2 | 1 | -1 | 1
CSc1nc(C)cc(OCC(=O)n2nc(C)cc2C)n1 | -3 | i | 13 | 4 | 1 | 4 | 4 | nt
COc1ccc(N(CC(=O)NCCC2=CCCCC2)S(=O)(=O)c2c(C)[nH]c(=O)[nH]c2=O)cc1 | -18 | i | 2 | -10 | -5 | -1 | 3 | 6
CC1=CC(=O)C=C(C)C1=NOC(=O)/C=C\c1ccccc1 | 2 | nt | 11 | 7 | 1 | -1 | -8 | nt
Cc1cc(OCc2nnc(SC(C)C(=O)O)n2-c2ccccc2)ccc1Cl (stereo not drawn) | 3 | i | 2 | -4 | -1 | -2 | 7 | -5
Cc1ccc(-c2nc(CS(=O)CC(=O)NC3CCC(C)CC3)c(C)o2)cc1 (stereo not drawn) | -16 | i | 17 | 6 | 3 | 11 | -9 | -9
O=C(Nc1nnc(Cc2ccccc2F)s1)Nc1ccccc1F | 58 | i | -8 | -4 | -1 | 2 | -4 | -18
O=C(c1cnccn1)N1CCN(c2ccccc2F)CC1 | -6 | i | -33 | 24 | 2 | 5 | 7 | nt
Cc1ccc(NC(=O)C(Cc2ccccc2)NC(=O)OCc2ccccc2)cc1C (stereo not drawn) | -1 | i | -4 | 3 | -2 | -21 | -21 | nt

Some of the compounds tested; rates above refer to the full screens.
